Source: PubChem BioAssay
StopGo RLuc – FMDV 2A StopGo reporter, Renilla signal; HEK cells with a luciferase reporter of 2A StopGo recoding; Potency, µM (doses to about 57.5 µM), without a hit: at the highest dose signal change, negative = less light; actives 0.32% (n = 120,000); active means well fitted falling curve with a large enough effect; inconclusive means small, poorly fitted or top-dose-only effect; inactive means no such curve, though single readings can be large or run the other way; further: nearly all actives have a fitted effect of over 55% in size; overnight with compound
2A firefly – lowers the firefly signal of an FMDV 2A StopGo reporter | HEK cells with a luciferase reporter of 2A StopGo recoding | Potency, µM (top dose mostly 57.5 µM), inactives show at the highest dose signal change, negative = less light | actives 0.23% (n = 120,000) | AID 1745856; active = well fitted falling curve with a large enough effect; inconclusive = small, poorly fitted or top-dose-only effect; inactive = no such curve, though single readings can be large or run the other way; further: nearly all actives have a fitted effect of over 60% in size; overnight with compound
Active calls of the source: *; ? = inconclusive; [ ] = remark or other dose. On the % scale 0 is the no-effect control and ±100 the full control effect; potency means the concentration at half of the fitted maximal effect. These rows are one share of the data. The share of hits here may be higher or lower than overall.

SMILES | StopGo RLuc | 2A firefly
COCc1c(C(=O)NCC(c2ccco2)N2CCCC2)sc2cccc(F)c12 (centres undefined) | 2% | 6%
O=C(c1cc2ccccc2[nH]1)N1CCN(S(=O)(=O)c2cccs2)CC1 | -7% | 1%
CCCNC(=O)C1CCN(c2cc(C)nc3c(-c4ccc(OC)c(OC)c4)c(C)nn23)CC1 | -2% | -9%
CCCCCCCCS(=O)CCCCC(=O)OCC (centres undefined) | 9% | 14%
CCOc1ccc(C2Nc3ccccc3C(=O)N2C2CC2)cc1OC (centres undefined) | 5% | 4%
O=C(c1ccc(Cl)cc1)[C@@H]1[C@H]2C(=O)[C@@H]3OC[C@@H](O3)[C@@H]12 | 1% | 34%
CCCNc1ncnc2onc(-c3ccc(Cl)cc3)c12 | 12% | 20%
Cc1cc(C)cc(NC(=O)CN2C(=O)c3ccccc3Sc3ccc(C(=O)N4CCCC4)cc32)c1 | 13% | -15%
O=C(CSc1oc(-c2ccco2)nc1S(=O)(=O)c1ccc(Br)cc1)c1ccc(Cl)cc1 | 0% | -19%
COc1ccc(-c2[nH]ncc2C(=O)NCc2cccc(Cl)c2)cc1 | 8% | 0%
CCC(C(=O)NC1CCC(C)CC1)n1nc(C)c2sc3ccccc3c2c1=O (centres undefined) | 188%[activator] | 50%[activator]
Cc1ccc(CNC(=O)Cn2c(=O)n(-c3ccccc3)c(=O)c3c2c2cc(C)ccc2n3C)cc1 | -4% | -6%

Sorted by number of heavy atoms (smallest number first): some entries from above.
SMILES | StopGo RLuc | 2A firefly
COc1ccc(-c2[nH]ncc2C(=O)NCc2cccc(Cl)c2)cc1 | 8% | 0%
O=C(CSc1oc(-c2ccco2)nc1S(=O)(=O)c1ccc(Br)cc1)c1ccc(Cl)cc1 | 0% | -19%
Cc1ccc(CNC(=O)Cn2c(=O)n(-c3ccccc3)c(=O)c3c2c2cc(C)ccc2n3C)cc1 | -4% | -6%

Remaining list, next part
SMILES | StopGo RLuc | 2A firefly
COc1ccc(CC(=O)N2CC(=O)Nc3ccc(Br)cc3C2c2ccc(F)cc2)cc1OC (centres undefined) | -1% | -27%
Cc1ccc(CNC(=O)CN(c2cc(C)cc(C)c2)S(=O)(=O)c2c(C)noc2C)cc1 | 0% | -17%
COc1ccc(-c2c(C)oc3c(C)c(O)ccc3c2=O)cc1 | -3% | 7%
CC1=C(C(N)=O)C(c2ccc(F)cc2)n2nc(-c3ccccc3Cl)nc2N1 (centres undefined) | 11% | 17%
COc1cc(C2SCC(=O)Nc3[nH]ncc32)ccc1OCC(C)C (centres undefined) | -22% | 13%
COc1ccc(/C=C/c2nn3c(-c4ccc5c(c4)OCO5)nnc3s2)cc1 | 5% | 92%[activator]
CC(C)NC(=O)NC(=O)CSc1nnc(COc2ccccc2Cl)o1 | -1% | 6%
CCCn1c(-n2nc(C)cc2C)nc2c1c(=O)n(CCN1CCCCC1)c(=O)n2C | -15% | -7%
C(=N\N=C1c2ccccc2-c2ccccc21)/c1cccs1 | 22% | 82%[activator]
C=CCNC(=O)c1ccccc1CSc1nc2ccccc2o1 | 25% | 26%
O=C(Nc1ccccc1)OCC(CN1CCCCC1)OC(=O)Nc1ccccc1 (centres undefined) | -8% | -22%
CNc1nc2c(c(=O)[nH]c(=O)n2C)n1CC(O)COc1ccc(Cl)cc1 (centres undefined) | -1% | 0%
O=S(=O)(NCCc1csc(-c2ccc(F)cc2)n1)c1ccccc1F | 17% | -28%
COc1cccc(-c2ccnc3c(-c4ccc(F)cc4)c(C)nn23)c1 | 2% | 5%
CN(CC(=O)NCc1nc(-c2ccccc2)no1)S(=O)(=O)c1ccc(Cl)cc1 | 15% | 0%
CCN(CC)C(=O)c1ccc(NC(=O)COC(=O)c2ccc3nc(C)c(C)nc3c2)cc1 | -3% | -1%
O=C(OCc1nnnn1-c1ccccc1)C1(c2ccccc2)CCC1 | 12% | 4%
CCc1ccc(CNC(=O)CN2C(=O)c3cccnc3Oc3ccc(C)cc32)cc1 | 31%[activator] | -5%
CCCc1sc(C(=O)N2CCCCC2C)cc1Br (centres undefined) | 41%[activator] | 53%[activator]
O=C1/C(=C/c2ccccc2Cl)C(c2ccccc2)Oc2ccccc21 (centres undefined) | 1% | -5%
COc1ccc(CCNC(=O)c2nn(C)c3c2CSc2ccccc2-3)cc1OC | ? | ?
O=C(Nc1ccc(F)cc1)c1ccc2c(=O)n3c(nc2c1)CCCCC3 | -35% | 0%
Clc1cccc(N/N=C/c2ccc(Br)cc2)n1 | 7% | 249%[activator]
CCOc1ccc(-c2nnc(SCC(=O)NCCc3ccccc3)nc2-c2ccc(OCC)cc2)cc1 | -18% | -18%
CCCCc1nnc(NC(=O)c2ccc3ccn(C)c3c2)s1 | 7% | 0%
CCCCCCNC(=O)c1ccc(Nc2ccc(-c3ccc(C)cc3)nn2)cc1 | 16% | 27%
COc1ccc(N(C(=O)c2cccs2)C2C=CS(=O)(=O)C2)cc1 (centres undefined) | 11% | -1%
Cc1ccc(NC(=O)c2ccc3ccccc3n2)cc1C | 1% | 24%
Cc1ccc(C)c(OCCn2cc(C(=O)c3ccco3)c3ccccc32)c1 | -7% | -5%
O=C(CSc1nc2c([nH]c3ccccc32)c(=O)n1-c1ccccc1)N1CCCc2ccccc21 | -21% | -5%
Cc1cc(Cl)ccc1NC(=O)C1CC2CCC1C2 (centres undefined) | 6% | 22%
CC(C)n1ncc2c(C(=O)NCc3ccccc3F)c3c(nc21)CCC3 | 43%[activator] | 24%
COc1ccc(CC(=O)OC(C)C(=O)c2ccc(C)cc2)cc1Br (centres undefined) | 0% | 21%
COc1ccc(/C=C(\C#N)C(=O)C(C)(C)C)c(OC)c1 | 9% | 0%
O=C(Nc1nc2n(n1)C(c1ccc(F)cc1)C=C(c1ccccc1)N2)c1cccc([N+](=O)[O-])c1 (centres undefined) | 10% | 16%
N#CCc1ccc(OCc2ccccc2N)cc1 | 11% | 168%[activator]
Cc1ccc(CN(C(=O)CCc2c[nH]c3ccccc23)C(C)C)o1 | 23% | -5%
CCN(CCCNC(=O)Cn1ncc2c([nH]c3ccc(C)cc32)c1=O)c1ccccc1 | -10% | 0%
Cc1nc2sccn2c(=O)c1S(=O)(=O)N1CCN(c2ccc(F)cc2)CC1 | 7% | -20%
Cc1ccc(Nc2nc(C(N)=O)c(NC(=O)c3ccccc3Br)s2)cc1 | -11% | 20%
O=C(CN1CCN(c2ccc(F)cc2)CC1)Nc1ccnn1Cc1ccccc1Cl | -14% | -15%
Cc1cccc(C(=O)NC23CC4CC(CC(C4)C2)C3)c1 | 30% | 0%
CN(c1ccccc1)S(=O)(=O)c1cccc(NC(=O)Cc2n[nH]c(=O)c3ccccc23)c1 | ? | ?
O=C(CN1CCN(c2nc(-c3ccccn3)nc3scc(-c4ccccc4)c23)CC1)N1CCCC1 | 36%[activator] | 139%[activator]
COc1cccc(NC(=O)Nc2cccc(-c3cn4cccnc4n3)c2)c1 | 18% | 0%
CN(c1ccccc1)c1ncnc2c1cnn2C | 9% | 49%[activator]
O=C(c1ccc2c(c1)N(Cc1ccccc1F)C(=O)c1ccccc1S2(=O)=O)N1CCCC1 | 168%[activator] | 29%
COc1ccc(-c2coc3cc(OC(=O)C(C)C)ccc3c2=O)cc1 | 17% | 179%[activator]
Cc1ccccc1-c1cc(=O)c2cc(NC(=O)c3ccccc3)ccc2o1 | 9% | 60%[activator]
Cc1ccc(C(=O)C(C#N)C(=O)NC2CCCCC2)c(C)c1 (centres undefined) | 0% | 6%
COc1cc(OC)cc(-c2nc3nc(C)c(CCC(=O)Nc4ccc(F)cc4F)c(C)n3n2)c1 | -15% | -6%
O=C(Cn1cc(S(=O)(=O)c2ccccc2)c(=O)c2cc3c(cc21)OCO3)Nc1ccccc1 | -10% | 7%
COc1ccc(OC)c(CCNC(=O)CS(=O)(=O)Cc2nc(-c3ccc(C)cc3)oc2C)c1 | ? | -10%
N#Cc1ccsc1NC(=O)CSc1nnc(-c2ccccc2Cl)n1C1CCCC1 | 33%[activator] | 5%
O=P(O)(O)OCC(O)CO (centres undefined) | -9% | -14%
Cc1cc2nc3ccc(=[N+](C)C)cc-3sc2cc1N | -6% | 21%[11.5 µM]
Cn1ccc(NC(=O)c2nn(Cc3ccccc3)c(=O)c3ccccc23)n1 | 76%[activator] | 88%[activator]
COc1ccc(/C=C(/C#N)c2ccc(C(F)(F)F)cn2)cc1OC | 6% | 0%
COc1ccc(-c2noc(CN(C(=O)COc3cc(C)c(Br)c(C)c3)C(C)C)n2)cc1 | 0% | 3%
Cc1ccc(CN2CCc3nc(Nc4ccc5c(c4)OCCO5)ncc3C2)cc1 | 10% | 49%[activator]

Profiles as entered above.
COc1ccc(/C=C(/C#N)c2ccc(C(F)(F)F)cn2)cc1OC as listed: StopGo RLuc = 6%; 2A firefly = 0%
O=C(CSc1oc(-c2ccco2)nc1S(=O)(=O)c1ccc(Br)cc1)c1ccc(Cl)cc1 as listed: StopGo RLuc = 0%; 2A firefly = -19%

New compounds follow:
SMILES | StopGo RLuc | 2A firefly
O=C(Cn1c(=O)n(-c2ccccc2)c(=O)c2ccc(C(=O)NCc3ccc4c(c3)OCO4)cc21)Nc1ccc(Br)cc1 | 21% | 3%
COC(=O)C1CN(Cc2cn(Cc3ccc(Cl)cc3)nn2)CCS(=O)(=O)N1Cc1ccc(Cl)cc1 (centres undefined) | ? | ?
O=C(NC1CC(=O)N(c2cccc(F)c2)C1)C1CCCCC1 (centres undefined) | -16% | -21%
COc1cccc(NC(=O)Nc2c(NC3CCCCC3)c3ccccc3oc2=O)c1 | 18% | -7%
Cc1ccc(Nc2nc(-c3c(C)nc4sccn34)cs2)cc1 | ? | ?
CC1(C)Cc2c(c(N3CCOCC3)nc3sc4c(NCCc5ccccc5)nnnc4c23)CS1 | 53%[activator] | 14%
COc1ccc(S(=O)(=O)NCCc2csc(-c3ccc(F)cc3)n2)cc1F | 112%[activator] | ?
O=c1[nH]c(=O)n(-c2ccccc2F)c2c1C(C(F)(F)F)(C(F)(F)F)N=C(c1ccncc1)N2 | 22% | 31%[activator]
CCn1c(=O)cc(OCC(=O)Nc2cc(Cl)c(OC)cc2OC)c2ccccc21 | -11% | -20%
Cc1ccc(OCC(=O)NCC2(N3CCN(C)CC3)CCCCC2)cc1 | -3% | -19%
Cc1c(Cl)cccc1NC(=O)c1ccc2snnc2c1 | -10% | 1%
Nc1nc(CN2CCN(C(=O)c3cc(C(F)(F)F)cc(C(F)(F)F)c3)CC2)nc2ccccc12 | -13% | 21%

Looked up above.
CC1(C)Cc2c(c(N3CCOCC3)nc3sc4c(NCCc5ccccc5)nnnc4c23)CS1 | StopGo RLuc = 53%[activator]
COc1cccc(NC(=O)Nc2c(NC3CCCCC3)c3ccccc3oc2=O)c1 | StopGo RLuc = 18%
Cc1c(Cl)cccc1NC(=O)c1ccc2snnc2c1 | 2A firefly = 1%

Further structures.
SMILES | StopGo RLuc | 2A firefly
Cc1ccc(NC(=O)Cc2c(C(=O)O)c(C)cn2C)cc1Cl | 0% | 1%
COc1cc(C2c3c(oc4ccc(C)cc4c3=O)C(=O)N2Cc2ccccc2)ccc1O (centres undefined) | -1% | 0%
O=c1c2cccnc2n(Cc2cccc(F)c2)c(=O)n1Cc1ccccc1Cl | -9% | -8%
C[C@@H](C(=O)N1CCN(c2ccc(F)cc2)CC1)n1cnc2ccccc2c1=O | -15% | 1%
Cc1cccc(CN2CCN(c3nc4c(c(=O)[nH]c(=O)n4C)n3CCc3ccccc3)CC2)c1 | -5% | 0%
CC(C)C(NC(=O)c1ccc(Cl)cc1)C(=O)NCc1cnn(-c2ccccc2)c1 (centres undefined) | -1% | -1%
O=C(O)CCCOc1ccc(Br)cc1 | -10% | -11%
CCn1c(CC2C(=O)N(C)c3ccc(Br)cc32)nc2ccccc2c1=O (centres undefined) | 0% | 4%
CC(Sc1nc(CN2CCOCC2)nc2ccccc12)C(=O)c1cccc(Cl)c1 (centres undefined) | -21% | -25%
Cc1cccc(C)c1NC(=O)C1(NC=O)CCCCC1 | -9% | -9%
CC(C)CCC(C)NC(=S)Nc1ccc(Cl)cc1 (centres undefined) | ? | ?
CCN(CC)C(=O)CSc1nc2ccsc2c(=O)n1Cc1ccccc1Cl | 0% | ?
COc1ccc(C(C)=O)cc1CSc1c(C)c(C)cc(C)c1C | -9%[1.06 µM] | 11%
CC(C)CSc1ccccc1NC(=O)c1sc2nc(-c3ccncc3)ccc2c1N | -18% | -34%
O=C(c1cc2ccccc2oc1=O)N1CCN(C(c2ccccc2)c2ccccc2)CC1 | -16% | -19%
CC1CCN(CC2CCN(C(=O)Nc3ccc(Br)cc3F)CC2)CC1 | ? | 3%
Cc1ccc(-c2nc3ccccn3c2Nc2c(C)cccc2C)o1 | 40%[activator] | -9%
Cc1ccc(-c2ncc(CCNC(=O)c3ccccc3)[nH]2)cc1 | -7% | -14%
O=C(c1nn(Cc2ccccc2)c(=O)c2ccccc12)N1CCCC1c1ccc2c(c1)OCCCO2 (centres undefined) | 17% | 0%
CC(C)c1ccc(-c2nonc2NC(=O)c2ccco2)cc1 | 11% | 4%
CCN(CC)S(=O)(=O)c1ccc2oc(C(=O)NCc3ccccc3OC)c(C)c2c1 | 10% | 1%
CC(=O)NNC(=S)Nc1ccc(C)c(C)c1 | 14% | 19%
O=C(CCS(=O)(=O)c1cc2c(cc1Cl)NC(=O)CO2)NCCc1ccccc1 | -1% | 1%

Random excerpt: 4 records from the list.
SMILES | StopGo RLuc | 2A firefly
CCn1c(CC2C(=O)N(C)c3ccc(Br)cc32)nc2ccccc2c1=O (centres undefined) | 0% | 4%
CC(C)C(NC(=O)c1ccc(Cl)cc1)C(=O)NCc1cnn(-c2ccccc2)c1 (centres undefined) | -1% | -1%
Cc1ccc(NC(=O)c2ccc3ccccc3n2)cc1C | 1% | 24%
O=C(CSc1nc2c([nH]c3ccccc32)c(=O)n1-c1ccccc1)N1CCCc2ccccc21 | -21% | -5%
